# Vif TR-FRET = inhibitors of Vif binding to APOBEC3G peptide, primary screen, biochemical, TR-FRET, GST-Vif 1-94, biotin-A3G peptide, dose response retest (AID 1117319); TR-FRET GST-Vif / biotin-A3G peptide binding; higher % means a stronger effect; test concentration not given here; strong numbers were not always called active; inhibition, %, or IC50 in µM where a hit was titrated; hit rate 0.57% among 260,000;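 active = above the screen mean plus three standard deviations and confirmed in dose response; inconclusive = results disagree or hit not tested in dose response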;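 note: Vif residues 1-94 fused to GST binding biotinylated APOBEC3G peptide 110-148; 0% = full assay without inhibitor and 100% = GST in place of GST-Vif; retest series ran down from 100 µM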
# UCH37 inh = inhibitors of human UCH37 deubiquitinase, primary screen, biochemical, Ub-AMC cleavage, fluorescence; Ubiquitin carboxyl-terminal hydrolase isozyme L5 (Homo sapiens), Q9Y5K5; purified proteasome/UCH37; inhibition, % (no concentration beside the values); hit rate 0.33% among 330,000;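 active = mean of two replicates above 20%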;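 note: 0% = compound-free wells with enzyme and 100% = wells lacking proteasome; stock transfer was 100 nL into about 20 µL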
# Target sequence (Q9Y5K5 whole entry, looked up): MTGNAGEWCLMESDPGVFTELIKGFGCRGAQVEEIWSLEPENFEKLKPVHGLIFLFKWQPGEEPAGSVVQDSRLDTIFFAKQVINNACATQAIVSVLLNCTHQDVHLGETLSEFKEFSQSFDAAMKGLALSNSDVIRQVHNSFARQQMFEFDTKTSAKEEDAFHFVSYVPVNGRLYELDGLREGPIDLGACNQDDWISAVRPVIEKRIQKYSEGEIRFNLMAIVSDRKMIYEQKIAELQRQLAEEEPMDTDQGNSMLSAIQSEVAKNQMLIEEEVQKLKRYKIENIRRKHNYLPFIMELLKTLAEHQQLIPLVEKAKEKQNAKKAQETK
#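 Assay system: Proteasome-bound UCH37. Buffer or medium: pH 7.4 Tris-HCl (50 mM) with ovalbumin, ATP-MgCl2, DTT. Incubation: 30 min preincubation with enzyme, 25 min cleavage at room temperature. Measured by: fluorescence, ex 355 nm, em 460 nm. Read-out basis: percent inhibition. Control set: wells without proteasome as full block, compound-free enzyme plus substrate as uninhibited.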
# E coli growth = E. coli growth inhibition, primary screen, OD600 | OD600 absorbance (concentration not given with the values) | Escherichia coli growth, 23 h; stronger effect = lower value | hit rate 0.21% among 330,000;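 active = OD600 absorbance below the run mean of sample wells minus 3.6 SD, in any replicate, cut at about 0.56 in these data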;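 note: stock transfer was 300 nL into about 60 µL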
# LANA-H2B inh = blockers of LANA interaction with H2A/H2B – biochemical, FP readout, HTS, primary screen; Protein LANA1 (Human herpesvirus 8 type P (isolate GK18)), Q9QR71; cell-free LANA-H2A/H2B peptide, fluorescence polarization; inhibition, % (concentration not given with the values); hit rate 0.6% among 320,000; AID 2629, 2010; in the data active = inhibition mostly above about 10%, no sharp cut-off; inactive = mostly below about 6.7%;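 note: stock transfer was 7.5 nL into about 10 µL; 0% = median of vehicle wells and 100% = median of positive control wells; one replicate is shown; the record names a cut of 25% in any replicate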
# HNF4A DNA FP = change in binding of human HNF4A to DNA, primary screen, biochemical, fluorescence polarization, FITC-DNA; Hepatocyte nuclear factor 4-alpha (Homo sapiens), P41235; activity change, % at 10 µM; AID 1224865, 2016; 1 h; hit rate 0.3% among 360,000; in the data active = activity change above about 30%, passing the limit was not always enough;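 note: controls were the assay level and a saturating level of protein; the project sought stronger binding though the title names inhibitors; some compounds called inactive have numbers as strong as hits; positive values seem to mean higher polarization but the record does not say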
# Target sequence (P41235 whole entry, looked up): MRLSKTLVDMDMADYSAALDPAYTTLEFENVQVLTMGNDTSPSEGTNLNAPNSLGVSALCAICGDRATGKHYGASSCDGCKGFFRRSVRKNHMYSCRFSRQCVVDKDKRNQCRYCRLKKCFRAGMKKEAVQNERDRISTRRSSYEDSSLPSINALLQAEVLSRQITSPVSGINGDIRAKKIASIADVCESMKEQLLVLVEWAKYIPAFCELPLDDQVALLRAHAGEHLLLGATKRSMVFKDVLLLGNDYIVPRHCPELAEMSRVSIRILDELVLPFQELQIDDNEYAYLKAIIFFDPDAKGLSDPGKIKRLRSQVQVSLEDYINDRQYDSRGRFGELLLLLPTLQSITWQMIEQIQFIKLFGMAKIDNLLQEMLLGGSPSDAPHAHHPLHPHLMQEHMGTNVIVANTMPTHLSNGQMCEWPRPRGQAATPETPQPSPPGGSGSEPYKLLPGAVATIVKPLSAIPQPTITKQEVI
# B2AR ag = beta2AR agonists driving receptor internalization, primary screen, cell-based, FAP fluorogen, flow cytometry; hit rate 0.43% among 340,000; response, % (concentration not given with the values); Am2.2-beta2AR cells; reference of the scale not given here; AID 504454, 2011;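 active = response above a set limit, near 3 SD of response in nonfluorescent compounds, cut at about 42% in these data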;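 note: stock transfer was 100 nL into about 11 µL; a reference agonist was the positive control; negative values mostly stem from fluorescent compounds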
# A1 inh = caspase 3/7 activation in MEF A1-2A-BIM cells, primary screen, A1 inhibitor project, cell-based, luminescence, HTS. hit rate 0.066% among 330,000. AID 2462, 2010. caspase activation, % (no concentration beside the values). Caspase-Glo 3/7 luminescence, 3 h; percent of clofoctol response, vehicle zero;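 active = over half of replicate activation scores above 10%, or exactly half above 10 with the replicate mean above 10; inconclusive = replicate mean below 10 yet half the replicates above 10; inactive = over half of replicates below 10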;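 note: wells of about 30 µL received 50 nL stock; many hits fall short of the cut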
# Starred values were filed as active, the others as inactive; ? = inconclusive; . = not tested or not shown.
# Short forms: A = Vif TR-FRET; B = UCH37 inh; C = E coli growth; D = LANA-H2B inh; E = HNF4A DNA FP; F = B2AR ag; G = A1 inh
SMILES: Oc1cccnc1CN1CCCCC1
  A: . | B: 1.5 | C: 0.71 | D: . | E: -4.5 | F: . | G: .

SMILES: CCOC(=O)C(C)Sc1nc2c(c(=O)[nH]c(=O)n2C)n1Cc1ccc(Cl)cc1 (stereo unspecified)
  A: 10% | B: -0.4 | C: 0.76 | D: -2.9 | E: 1.5 | F: 10 | G: 0.8

SMILES: CC(=O)N(CCc1ccccc1)Cc1cc2ccc(C)c(C)c2[nH]c1=O
  A: . | B: -1.4 | C: 0.66 | D: 1.0 | E: 2.1 | F: 3 | G: -0.1

SMILES: Cc1c(Cl)cccc1NS(=O)(=O)c1ccc(-c2ccc(=O)[nH]n2)o1
  A: . | B: 2.7 | C: 0.65 | D: 3.4 | E: 0.5 | F: 3 | G: 0.4

SMILES: O=C(O)CCNC(=O)C12CC3CC(CC(C3)C1)C2
  A: 8% | B: -0.1 | C: 0.67 | D: -5.9 | E: 4.1 | F: 3 | G: 0.8

SMILES: O=C(CC1Oc2ccccc2NC1=O)NCCCN1CCN(Cc2ccccc2)CC1 (stereo unspecified)
  A: -2% | B: 6.7 | C: 0.76 | D: 0.3 | E: -2.3 | F: -9 | G: 0.0

SMILES: O=C1CC2(CCCC2)Oc2ccc(F)cc21
  A: . | B: -3.6 | C: 0.68 | D: -5.0 | E: -0.7 | F: 3 | G: 1.9

SMILES: Cc1cccc(-c2nc3sc(C)cc3c(=O)o2)c1
  A: -6% | B: -1.6 | C: 0.7 | D: 1.0 | E: 1.4 | F: 1 | G: -6.6

SMILES: COc1ccc2cc3cc(C(=O)N4CCN(c5ccccn5)CC4)oc3nc2c1
  A: . | B: -19 | C: 0.74 | D: 2.9 | E: 1.1 | F: -1 | G: 0.3

SMILES: COC(=O)C(NC(=O)c1ccccc1Cl)(Nc1ncc(S(=O)(=O)c2ccc([N+](=O)[O-])cc2)s1)C(F)(F)F (stereo unspecified)
  A: 0% | B: 3.2 | C: 0.67 | D: 5.7 | E: 4.5 | F: -1 | G: 0.8

# The list continues.
# Short forms: A = Vif TR-FRET; B = UCH37 inh; C = E coli growth; D = LANA-H2B inh; E = HNF4A DNA FP; F = B2AR ag; G = A1 inh
SMILES: COc1ccc(CC(=O)Nc2ccc3c(c2)OCO3)cc1S(=O)(=O)N1CCOCC1
  A: -10% | B: 4.4 | C: 0.73 | D: 3.1 | E: -0.1 | F: 1 | G: 0.0

SMILES: CCN(CC)C(=O)C1=C(C)NC(=O)NC1c1ccccc1F (stereo unspecified)
  A: -6% | B: . | C: . | D: 3.0 | E: . | F: . | G: 1.5

SMILES: O=C(NCCc1ccccc1)Nc1cccc(Cl)c1
  A: 7% | B: 1.6 | C: 0.6 | D: -1.8 | E: -0.4 | F: 1 | G: -0.4

SMILES: CCOC(=O)C1CCN(C(=O)CCNC(=O)Cn2ccc3ccccc3c2=O)CC1
  A: 0% | B: -3.8 | C: 0.71 | D: 0.0 | E: 1.5 | F: 21 | G: 0.9

SMILES: COc1ccc2c(c1)OC[C@H]1[C@H]2N2C(=O)CN(C)C(=O)[C@@]2(C)[C@H]1c1ccccc1
  A: . | B: 2.9 | C: . | D: 11 | E: -4.0 | F: -7 | G: 0.7

SMILES: CCCCCCCCc1nc(=S)[nH][nH]1
  A: 6% | B: -0.6 | C: 0.73 | D: -1.3 | E: 1.2 | F: -3 | G: 0.5

SMILES: COc1ccc(CCNC(=O)COC(=O)Cc2cccc3ccccc23)cc1
  A: -8% | B: -19 | C: 0.67 | D: 4.4 | E: -1.1 | F: 3 | G: 0.6

SMILES: COCCN(CCOC)Cc1c(C)[nH]c2c(C)c(C)ccc2c1=O
  A: -2% | B: 3.8 | C: 0.68 | D: 1.6 | E: 1.8 | F: 6 | G: 0.1

SMILES: CC(=O)NNC(=O)c1csc(-c2csc(C)n2)n1
  A: -2% | B: 3.2 | C: 0.62 | D: 1.0 | E: -1.5 | F: -2 | G: -2.7

SMILES: O=C(NCc1cccnc1)C(=O)Nc1ccc([N+](=O)[O-])cc1
  A: 17% | B: 7.4 | C: 0.69 | D: -1.2 | E: -3.2 | F: -1 | G: 0.5

# Next part:
# Short forms: A = Vif TR-FRET; B = UCH37 inh; C = E coli growth; D = LANA-H2B inh; E = HNF4A DNA FP; F = B2AR ag; G = A1 inh
SMILES: Cc1ccc(C)c(NC(=O)CN2C(=O)COc3ccc(S(=O)(=O)N4CCCC4)cc32)c1
  A: . | B: -1.8 | C: 0.67 | D: 2.8 | E: 2.4 | F: -2 | G: -0.5

SMILES: CC(C)(C)S(=O)(=O)/C(C#N)=C/c1sccc1C1OCCO1
  A: -6% | B: 7.2 | C: 0.67 | D: 0.9 | E: 0.2 | F: -7 | G: -0.1

SMILES: CCc1ccc(N2C(=O)CC(N3CCC(C(=O)OC)CC3)C2=O)cc1 (stereo unspecified)
  A: 2% | B: . | C: . | D: -0.4 | E: -0.3 | F: 8 | G: 0.2

SMILES: CCC(NC(=O)CCc1nnc(-c2cc(C)on2)o1)C12CC3CC(CC(C3)C1)C2 (stereo unspecified)
  A: . | B: 1.0 | C: 0.7 | D: -1.9 | E: 1.8 | F: 2 | G: 0.4

SMILES: CCOC(=O)C1=C(c2ccccc2)N=c2sc(=Cc3cc(OC)c(OC)c(OC)c3)c(=O)n2C1c1cccs1 (stereo unspecified)
  A: . | B: 2.1 | C: 0.71 | D: . | E: -0.3 | F: . | G: .

SMILES: CC(=O)N1CCc2c(sc(NC(=O)CCS(=O)(=O)c3ccccc3)c2C(N)=O)C1
  A: ? | B: -0.3 | C: 0.66 | D: 33* | E: -1.8 | F: -5 | G: -0.7

SMILES: CN(Cc1ccon1)C(=O)CC1C(=O)NCCN1CC1CCCCC1 (stereo unspecified)
  A: . | B: -3.5 | C: 0.67 | D: 9.1 | E: 0.8 | F: 2 | G: -0.2

SMILES: CN(C)S(=O)(=O)N1CCN(c2ccccc2Cl)CC1
  A: -1% | B: 0.1 | C: 0.62 | D: -1.5 | E: 1.4 | F: 12 | G: -0.1

SMILES: Cc1nnc(C)n1N1C(=O)c2cccc3cccc(c23)C1=O
  A: -4% | B: -186 | C: 0.64 | D: -0.1 | E: 3.4 | F: 4 | G: -0.2

SMILES: CCn1c(Cc2ccccc2)nnc1SCC(=O)Nc1nc(C)c(C)s1
  A: 5% | B: 6.1 | C: 0.74 | D: -0.6 | E: -0.6 | F: -7 | G: -0.4

# Remaining list, next part.
# Short forms: A = Vif TR-FRET; B = UCH37 inh; C = E coli growth; D = LANA-H2B inh; E = HNF4A DNA FP; F = B2AR ag; G = A1 inh
SMILES: O=C(CCn1nnc(-c2cccs2)n1)NCc1ccccc1Cl
  A: 5% | B: 3.5 | C: 0.67 | D: -3.2 | E: -2.1 | F: -1 | G: 0.0

SMILES: CCc1ccc(C(=O)NNC(=O)CCN2CCN(Cc3ccccc3)CC2)cc1
  A: 6% | B: 0.4 | C: 0.7 | D: 0.2 | E: -1.5 | F: -1 | G: 0.0

SMILES: C=CCOC(=O)C1=C(C)NC(=O)NC1c1ccc2c(c1)OCO2 (stereo unspecified)
  A: . | B: 1.2 | C: 0.65 | D: -0.9 | E: -4.9 | F: 0 | G: -0.1

SMILES: CN1N=C(C(F)(F)F)CC1=O
  A: -1% | B: 2.1 | C: 0.67 | D: -0.3 | E: -1.3 | F: 7 | G: -1.5

SMILES: O=C(NCCc1c[nH]c2ccccc12)C1Cc2ccccc2CN1C(=O)c1ccco1 (stereo unspecified)
  A: 2% | B: -1.8 | C: 0.67 | D: -1.1 | E: 1.7 | F: -35 | G: -0.3

SMILES: CC(=O)c1c(C)[nH]c(C(=O)COC(=O)CCSc2ccccc2)c1C
  A: . | B: 7.5 | C: 0.69 | D: 1.4 | E: 3.1 | F: 8 | G: -0.1

# 13 structures already listed, ordered by length of the SMILES, ascending:
# Short forms: A = Vif TR-FRET; B = UCH37 inh; C = E coli growth; D = LANA-H2B inh; E = HNF4A DNA FP; F = B2AR ag; G = A1 inh
SMILES: CN1N=C(C(F)(F)F)CC1=O
  A: -1% | B: 2.1 | C: 0.67 | D: -0.3 | E: -1.3 | F: 7 | G: -1.5

SMILES: CN(C)S(=O)(=O)N1CCN(c2ccccc2Cl)CC1
  A: -1% | B: 0.1 | C: 0.62 | D: -1.5 | E: 1.4 | F: 12 | G: -0.1

SMILES: O=C(CCn1nnc(-c2cccs2)n1)NCc1ccccc1Cl
  A: 5% | B: 3.5 | C: 0.67 | D: -3.2 | E: -2.1 | F: -1 | G: 0.0

SMILES: Cc1nnc(C)n1N1C(=O)c2cccc3cccc(c23)C1=O
  A: -4% | B: -186 | C: 0.64 | D: -0.1 | E: 3.4 | F: 4 | G: -0.2

SMILES: CN(Cc1ccon1)C(=O)CC1C(=O)NCCN1CC1CCCCC1 (stereo unspecified)
  A: . | B: -3.5 | C: 0.67 | D: 9.1 | E: 0.8 | F: 2 | G: -0.2

SMILES: CC(C)(C)S(=O)(=O)/C(C#N)=C/c1sccc1C1OCCO1
  A: -6% | B: 7.2 | C: 0.67 | D: 0.9 | E: 0.2 | F: -7 | G: -0.1

SMILES: CCc1ccc(N2C(=O)CC(N3CCC(C(=O)OC)CC3)C2=O)cc1 (stereo unspecified)
  A: 2% | B: . | C: . | D: -0.4 | E: -0.3 | F: 8 | G: 0.2

SMILES: CCc1ccc(C(=O)NNC(=O)CCN2CCN(Cc3ccccc3)CC2)cc1
  A: 6% | B: 0.4 | C: 0.7 | D: 0.2 | E: -1.5 | F: -1 | G: 0.0

SMILES: O=C(NCCc1c[nH]c2ccccc12)C1Cc2ccccc2CN1C(=O)c1ccco1 (stereo unspecified)
  A: 2% | B: -1.8 | C: 0.67 | D: -1.1 | E: 1.7 | F: -35 | G: -0.3

SMILES: CCC(NC(=O)CCc1nnc(-c2cc(C)on2)o1)C12CC3CC(CC(C3)C1)C2 (stereo unspecified)
  A: . | B: 1.0 | C: 0.7 | D: -1.9 | E: 1.8 | F: 2 | G: 0.4

SMILES: CC(=O)N1CCc2c(sc(NC(=O)CCS(=O)(=O)c3ccccc3)c2C(N)=O)C1
  A: ? | B: -0.3 | C: 0.66 | D: 33* | E: -1.8 | F: -5 | G: -0.7

SMILES: Cc1ccc(C)c(NC(=O)CN2C(=O)COc3ccc(S(=O)(=O)N4CCCC4)cc32)c1
  A: . | B: -1.8 | C: 0.67 | D: 2.8 | E: 2.4 | F: -2 | G: -0.5

SMILES: CCOC(=O)C1=C(c2ccccc2)N=c2sc(=Cc3cc(OC)c(OC)c(OC)c3)c(=O)n2C1c1cccs1 (stereo unspecified)
  A: . | B: 2.1 | C: 0.71 | D: . | E: -0.3 | F: . | G: .
